Screening data deposited in PubChem by National Center for Advancing Translational Sciences (NCATS).
PINK1 expr mod: PINK1 expression modulation; PINK1 immunofluorescence, high-content cytometry, 24 h; Potency, µM (highest dose often 76.6 µM), without a hit: at the highest dose activation (PINK1 increase), usual class: activators; actives 0.2% (n = 410,000); AID 624263; active = well fitted activation curve with a large enough effect; inconclusive = small, poorly fitted or top-dose-only effect; inactive = flat fitted curve, though single readings scatter; cell line not stated here;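 note: potency is the fitted concentration of half-maximal effect; % of control where 0% means no effect; nearly all actives have a fitted effect of over 65% in size; a mitochondrial uncoupler was the plate control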
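Readout is PINK1 immunofluorescence, quantified alongside mitochondrial, cell and nuclear markers by laser-scanning microplate cytometry. Cells from a stable line were exposed to compound titrations (5 concentrations) for 24 hours, with CCCP controls.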
CtBP-E1A inh: blocks the CtBP interaction with E1A; AlphaScreen GST-E1A/His-CtBP binding, 1536-well; active compounds read low; control for the full effect not named in the record; actives 0.49% (n = 340,000); activity change, % (test concentration not listed); in the data active means activity change below about -65%; inconclusive means about -30% to -65%; inactive means above about -30%; note: % is set by controls: 0 for no effect and ±100 for the full control effect
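In 5 uL wells, 23 nL compound meets equimolar GST-E1A and His-CtBP (5X stock 125 nM each) for 2 h, 37 °C. Beads (5X, 50 ug/mL) then 1 h, 37 °C, dark.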
TRPML1 ag: agonists of human TRPML1 channel; activation, % (no concentration beside the values); TRPML1-expressing cells, Ca2+ dye fluorescence, FDSS; host cell line not named in the record; reference of the full effect not given here; actives 0.12% (n = 410,000); in the data active = activation above about 50%; inconclusive = about 30% to 50%; inactive = below about 30%; note: 0% is about no effect; the text of the record puts the active cut at 80%
Target sequence (Q9GZU1 whole entry, looked up): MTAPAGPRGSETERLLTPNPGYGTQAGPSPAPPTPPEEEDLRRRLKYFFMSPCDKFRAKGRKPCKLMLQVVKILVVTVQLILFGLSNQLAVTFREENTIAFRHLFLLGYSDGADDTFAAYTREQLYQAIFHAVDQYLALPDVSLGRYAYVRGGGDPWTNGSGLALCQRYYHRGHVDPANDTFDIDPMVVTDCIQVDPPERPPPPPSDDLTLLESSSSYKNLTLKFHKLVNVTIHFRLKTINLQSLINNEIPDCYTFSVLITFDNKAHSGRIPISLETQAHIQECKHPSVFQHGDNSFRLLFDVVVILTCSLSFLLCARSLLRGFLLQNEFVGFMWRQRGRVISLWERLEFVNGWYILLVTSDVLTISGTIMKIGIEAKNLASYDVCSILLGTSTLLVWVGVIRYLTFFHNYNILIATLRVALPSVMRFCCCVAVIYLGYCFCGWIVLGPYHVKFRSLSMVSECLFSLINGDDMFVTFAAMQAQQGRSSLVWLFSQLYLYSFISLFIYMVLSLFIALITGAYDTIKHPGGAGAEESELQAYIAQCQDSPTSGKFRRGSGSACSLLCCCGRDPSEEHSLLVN
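Tet-induced TRPML1-DL cells, 1,500 per well, cultured overnight, were loaded with a no-wash Ca2+ dye for 45–90 min. Calcium fluorescence was recorded on the FDSS for 110 s after compound addition, before the EC80 agonist (4 uM 54-4) was added.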
Six1-Eya2 inh: blocks human Six1 binding to Eya2; Q15475+O00167; AlphaScreen GST-Six1/His-Eya2 binding, biochemical; active compounds read low; control for the full effect not named in the record; activity change, % (test concentration not listed); actives 0.56% (n = 360,000); AID 651725; in the data active = activity change below about -65%; inconclusive = about -30% to -65%; inactive = above about -30%; note: % is set by controls: 0 for no effect and ±100 for the full control effect
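Homogeneous AlphaScreen proximity assay pairing GST-Six1 with His-tagged Eya2 (added as 5X mix: 250 nM and 500 nM) in 50 mM Tris pH 8.0, 300 mM NaCl, 1 mM TCEP. Glutathione donor and nickel acceptor beads; 1 h, 37 °C, dark.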
D2 PAM: human D2 receptor positive allosteric modulation; P14416; DiscoveRx D2 beta-arrestin cells, luminescence, 90 min; 100% = 57 uM dopamine signal; potentiation, % (concentration not given with the values); actives 0.23% (n = 360,000); AID 624464; active = potentiation of 50% or more; inconclusive = 30% to 50%; inactive = 30% or less;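 note: compound concentration not given in the record; tested on top of an EC20 dose of dopamine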
Target sequence (P14416 whole entry, looked up): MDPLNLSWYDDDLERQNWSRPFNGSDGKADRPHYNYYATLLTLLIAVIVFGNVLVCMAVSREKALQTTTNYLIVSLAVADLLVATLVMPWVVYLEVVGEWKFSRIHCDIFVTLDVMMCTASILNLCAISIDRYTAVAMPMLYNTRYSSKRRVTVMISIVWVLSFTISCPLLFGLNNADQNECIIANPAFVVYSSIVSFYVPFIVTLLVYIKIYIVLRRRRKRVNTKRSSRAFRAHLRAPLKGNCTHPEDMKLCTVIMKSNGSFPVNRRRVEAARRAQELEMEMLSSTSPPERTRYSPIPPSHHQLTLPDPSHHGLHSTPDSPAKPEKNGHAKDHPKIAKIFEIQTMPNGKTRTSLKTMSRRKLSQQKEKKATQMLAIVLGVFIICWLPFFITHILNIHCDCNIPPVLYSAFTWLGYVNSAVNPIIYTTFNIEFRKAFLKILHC
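PathHunter D2 cells, attached overnight at 37 deg C, received compound in DMSO plus dopamine at EC20 (50 nM final) for 90 min at 37 deg C. Beta-arrestin recruitment was read as luminescence after 1 h with detection reagent at ambient temperature.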
D2 agonist: agonists of human D2 dopamine receptor (beta-arrestin). actives 0.084% (n = 360,000). activation, % (no concentration beside the values). DiscoveRx PathHunter D2 beta-arrestin, luminescence, 90 min; 100% = 57 uM dopamine signal; in the data active = activation above about 40%; inconclusive = about 15% to 40%; inactive = below about 15%; note: compound concentration not given in the record; the text of the record calls up to 30% inactive
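Agonist mode: compounds alone added to overnight-plated D2 PathHunter cells for 90 min at 37 C, with 57 uM final dopamine (EC100) defining full response. Beta-arrestin recruitment detected by chemiluminescent reagent, read after 1 h at ambient temperature.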
Active calls of the source: *; ? = inconclusive; . = no result given; & = joins results of further samples; [ ] = another dose, or the depositor's remark.

SMILES	PINK1 expr mod	CtBP-E1A inh	TRPML1 ag	Six1-Eya2 inh	D2 PAM	D2 agonist
O=C(NC(c1ccccc1)c1ccc2ccccc2n1)C1CCN(CCOc2ccc(Cl)cc2)CC1 (configuration not stated)	-1.3%	6	0.9	-29	-8	?
COC(=O)c1cc(OC)c(OC)cc1NC(=O)CCN1C(=O)C2CCCCC2C1=O (configuration not stated)	0.3%	0	-0.4	-3	-8	-5.4
CC(C)CC1(C)NC(=O)N(CC(=O)NC(=O)Nc2ccc3c(c2)OCCO3)C1=O (configuration not stated)	0.6%	-2	-0.4	2	-4	1.0
Cc1cc(C)c(SCCc2ccncc2)c(C)c1	2.1%	.	0.6	0	-19	0.2
CCN(CC)CCNC(CC(=O)Nc1ccc(Cl)cc1Cl)C(=O)O (configuration not stated)	-2.3%	0	0.8	6	-6	-2.8
CN(C(=O)CCN1CCCO1)C1CCCN(Cc2ccccc2F)C1 (configuration not stated)	-0.1%	0	-0.3	-8	-42	8.5
COc1ccc(N2C(=O)CC(N3CCCC4CCCCC43)C2=O)cc1 (configuration not stated)	-0.8%	2	0.1	7	7	-1.7
CCOC(=O)/C=C/c1nc(C(=O)OCC)c(C)c(=O)[nH]1	1.4%	.	2.9	5	-23	1.6
FC(F)(F)c1nnc(Nc2ccc(Cl)cc2)s1	?	5	1.2	6	-9	9.4
CC(C)CCN(C(=O)c1csnn1)C(C(=O)NC1CCCC1)c1ccccc1 (configuration not stated)	3.8%	4	3.8	-1	0	-0.3
O=C(C1=COCCO1)N1CCN(S(=O)(=O)c2cccc(F)c2)CC1	-0.3%	4	-0.6	4	-1	15
O=C(CN1CCN(Cc2ccccc2Cl)CC1)N/N=C/C=C\c1ccccc1[N+](=O)[O-]	0.7%	.	0.5	-16	-13	-4.6
Nc1ccn(Cc2ccc(F)cc2)n1	-1.6%	3	-0.6	5	-1	2.4
O=C(O)C1=C[C@H](c2csc3ccccc23)C[C@H](OCc2ccc(CO)cc2)O1	1.6%	5	-0.3	5	-3	-2.4
CCOc1ccc(OCc2ccc(C(=O)N3N=C(C(F)F)CC3(O)C(F)F)o2)cc1 (configuration not stated)	1.4%[38.3 µM]	-9	-0.1	-7	-8	-4.8
COc1cc(OC)c(OC)cc1CN1CCN(Cc2ccc(SC)cc2)CC1	0.6%	.	0.8	-3	-22	-1.8
COc1ccc(Cl)cc1NC(=S)NN1CCOCC1	0.9%	20	-0.1	2	4	-1.8
O=C(Nc1ccc(CN2CCOCC2)cc1)c1ccc(Br)cc1	1.1%	-10	0.5	4	-4	-5.3
COc1ccc(Cc2nnc(NC(=O)c3cc(OC)cc(OC)c3)s2)cc1	11%	7	-0.1	-12	-1	-0.8
Cc1cc(CN(C)C(=O)c2ccc(OC3CCN(CCc4ccccc4)CC3)cc2)on1	2.0%	-2	0.8	-1	-33	-0.2
O=C(N/N=C/c1ccc2c(c1)OCO2)c1ccccn1	.	3	0.5	-1	-18	-3.0
Cc1ccn2c(CNC(C)c3cn(C)nc3C)c(C(=O)N3CCCCCC3)nc2c1 (configuration not stated)	1.6%	0	-0.5	3	-3	-1.5
COCCN1CCN(C(=O)c2ccc3oc(CCCc4ccccc4)nc3c2)CC1	-0.2%	1	-0.2	20	3	-8.3
Cc1ccc(CN(CC(=O)NCCc2ccccc2)C(=O)c2csnn2)cc1	3.0%	8	0.4	-2	-1	6.4
CC1CC(CC(=O)Nc2nc(-c3ccccc3)cs2)C(=O)O1 (configuration not stated)	0.4%	.	0.3	1	-9	0.4

The last four entries of the part above come first, to join the parts:
SMILES	PINK1 expr mod	CtBP-E1A inh	TRPML1 ag	Six1-Eya2 inh	D2 PAM	D2 agonist
Cc1ccn2c(CNC(C)c3cn(C)nc3C)c(C(=O)N3CCCCCC3)nc2c1 (configuration not stated)	1.6%	0	-0.5	3	-3	-1.5
COCCN1CCN(C(=O)c2ccc3oc(CCCc4ccccc4)nc3c2)CC1	-0.2%	1	-0.2	20	3	-8.3
Cc1ccc(CN(CC(=O)NCCc2ccccc2)C(=O)c2csnn2)cc1	3.0%	8	0.4	-2	-1	6.4
CC1CC(CC(=O)Nc2nc(-c3ccccc3)cs2)C(=O)O1 (configuration not stated)	0.4%	.	0.3	1	-9	0.4
CCc1ccc(C2=NNC(=Nc3cccc(S(=O)(=O)N(C)C)c3)SC2)cc1	?	-25	1.3	-25	18	-5.2
Nc1ccc(-c2cnc(N)c(C(=O)c3cccnc3)n2)cn1	-1.3%	.	-0.3	?	4	2.2
COc1ccc(N2CC(C(=O)NCc3cccnc3)CC2=O)cc1 (configuration not stated)	1.0%	3	-0.6	7	-9	-0.2
CCc1nnc(NC(=O)CSc2nc3cc4c(cc3cc2CC)OCCO4)s1	11µM*	6	1.1	2	0	-0.1
Cn1c(=O)c2[nH]c(CCCc3nc4ccccc4[nH]3)nc2n(C)c1=O	-0.5%	-3	0.1	-12	-6	-2.5
O=C(Nc1nnc(-c2ccc(Cl)cc2)o1)NC1CCCCC1	-0.7%	4	-0.4	2	-35	-4.1
COc1ccc(-c2sc3ccccc3c2/C=C/c2ccc(N)cc2)cc1	-0.6%	-1	-0.4	-5	-11	-0.7
O=C1c2ccccc2C(=O)N1Cc1cc(Cl)c(O)c([N+](=O)[O-])c1	6.4%	0	0.2	-23	-2	-7.9
Cc1cc(C)c2ccc(C)[n+]([O-])c2c1O	-20%[38.3 µM]	-6	-0.8	-7	-14	0.7
O=C(O)c1ccc(OS(=O)(=O)c2cccc(C(F)(F)F)c2)cc1	-0.5%	.	0.5	3	2	-2.8
Cc1ccccc1NC(=O)C(=O)NCCc1ccccc1	0.5%	-6	-0.5	8	-3	-5.2
O=C(c1ccc(NS(=O)(=O)c2ccc(F)cc2)cc1)N1CCC1	0.4%	1	0.4	1	-25	-7.7
Cc1cc(C(=O)O)cc(Br)c1N	0.6%	.	-0.9	8	-2	9.3
COc1cc(OC)cc(C(=O)N[C@H](C(=O)Nc2c(C)n(C)n(-c3ccccc3)c2=O)C(C)C)c1	0.3%	-1	-0.4	0	-2	-0.5
COc1ccc(/C=C2\Sc3ccc(C(=O)NCC4CCCO4)cc3N(C)C2=O)cc1 (configuration not stated)	-0.5%	3	0.0	-11	-11	0.3
O=C(O)Cn1nnn(-c2ccccc2)c1=S	0.1%	0	0.3	0	-11	0.9
COc1ccc(-c2nnc(CSc3nc4ccccc4c(=O)n3CC3CCCO3)o2)cc1OC (configuration not stated)	0.4%	2	0.7	5	-4	-1.1
COc1ccc(C(=O)NCc2nnc(SCC(=O)N3CCOCC3)o2)cc1OC	-1.2%	8	1.1	7	2	-1.9
O=C(OC1CCN(c2ncc(C(F)(F)F)cc2Cl)CC1)c1cccc(C(F)(F)F)c1	0.8%	7	-0.9	5	-6	-3.4
COc1ccc(CCNC(=O)CCc2cc(OC)c(OC)c(OC)c2)cc1OC	0.5%	7	1.4	0	-2	2.4
OCC[C@H]1C[C@H](O)[C@@H](O)[C@]2(OCCc3ccccc32)O1	0.2%	-1	-0.3	3	-8	0.0
CCn1c(NC(=O)C(C)C)c(-c2ccccc2)c(=O)c2ccccc21	0.4%	.	1.4	5	1	-4.8
CC(Sc1nncs1)C(=O)NCc1ccc2c(c1)OCO2 (configuration not stated)	-2.0%[38.3 µM]	9	2.6	1	-3	1.7
Cc1cccc(C(=O)N2CCCC(N3CCN(Cc4ccc5c(c4)OCO5)CC3)C2)n1 (configuration not stated)	-0.6%	-18	0.7	-17	-52	-2.4
Cc1cc(C)nc(SCC(=O)OCC(=O)Nc2ccccc2)n1	5.3%	8	-0.6	-7	-2	7.7
Other entries follow:
SMILES	PINK1 expr mod	CtBP-E1A inh	TRPML1 ag	Six1-Eya2 inh	D2 PAM	D2 agonist
CCN(CC)C(=O)[C@H]1C[C@H](CC(=O)NCc2ccco2)C(=O)N2CCc3c([nH]c4ccc(Cl)cc34)[C@]12C	3.6%	-7	3.3	-2	-11	-0.4
COCCCN1C(=O)c2ccc(C(=O)N3CCN(c4ccccc4OC)CC3)cc2C1=O	0.7%	-15	-0.3	1	-6	-2.2
CSc1nc(NCC(C)C)c2c3c(sc2n1)CN(C)CC3	28%[38.3 µM]	29	2.6	15	-18	-1.6
CC(C)c1ccc(C(=O)NC(=S)NCc2cccnc2)cc1	-0.9%	3	0.6	-2	-6	0.8
CCOC(=O)c1sc(NC(=O)c2ccc(C)s2)cc1C	3.6%	0	0.1	7	-43	0.3
CN(CCCNC(=O)c1nn(C)c2c1CS(=O)(=O)c1ccccc1-2)Cc1ccccc1	0.9%	-2	-0.1	-1	-29	-3.9
Cc1cccc(NC(=O)c2nc[nH]c2C(=O)NCCCCNC(=O)c2[nH]cnc2C(=O)Nc2cccc(C)c2)c1	2.5%	3	-1.0	9	-11	-2.4
O=[N+]([O-])c1ccc(/C=N/Nc2nc3ccccc3o2)cc1	1.3%	4	1.0	4	-1	0.6
CC1(c2ccccc2)NC(=O)N(CC(=O)NCc2cccc(Cl)c2)C1=O (configuration not stated)	-0.4%	36	-0.5	8	15	-0.3
COc1ccc(S(=O)(=O)N2CCc3ccccc3C2)cc1C(=O)O	-0.8%	4	-0.3	4	1	1.8
CC1CCCCN1c1nc2nonc2nc1N1CCCCC1C (configuration not stated)	-0.7%	-3	2.4	-12	7	1.3
CCOC(=O)/C=C/c1ccc2c(c1)S(=O)(=O)N(Cc1ccc(OC)cc1)[C@H]2CC(=O)OCC	0.7%	0	0.1&3.1	-6	2	0.5
COC(=O)[C@]1(Cc2ccccc2)N[C@H](CN(C)S(=O)(=O)c2ccc(C)cc2)[C@@H]2C(=O)N(Cc3ccccc3)C(=O)[C@@H]21	0.2%	0	-0.5	0	10	1.4
Cn1cc(SCC(=O)NCC2CCCO2)c2ccccc21 (configuration not stated)	0.8%	4	0.0	-2	1	-2.7
O=C(COC(=O)c1ccccc1)Nc1ccccc1N1CCOCC1	-2.5%	2	0.2	22	-10	-1.8
Cc1cc(Cl)ccc1C(=O)C1CCCN(C(=O)c2cccnc2C)C1 (configuration not stated)	-0.5%	-6	-0.6	-1	-7	2.3
Cc1ccc(S(=O)(=O)Nc2cccnc2Oc2ccc(Cl)cc2)cc1	-1.2%	8	2.3	6	0	-3.8
CNC(=O)CN(c1ccc(C(C)C)cc1)S(C)(=O)=O	2.3%[38.3 µM]	6	0.1	3	-10	-2.2
Cc1ccc2nc(-c3ccc4c(c3)OCCO4)cc(C(=O)O)c2c1	4.9%	-2	0.4	4	5	-6.5
Cc1ccc(C)c(N2CCN(C3CCCC(C)C3)CC2)c1 (configuration not stated)	5.5%	-8	0.6	-5	-11	2.3
CCOC(=O)/C(C#N)=C/C1=C(N2CCOCC2)C(C)(C)OCC1	0.6%	8	-0.6	0	-8	-6.1
O=C(COC(=O)Cc1ccc(Cl)cc1)NCc1ccc(F)cc1	0.9%	1	4.7	4	-2	10
COCCNC(=O)Cn1ccc2cc(S(=O)(=O)N3CCCCC3)ccc21	1.6%	1	0.3	2	-3	9.3
O=[N+]([O-])c1cc(S(=O)(=O)C(F)(F)F)ccc1Sc1nc2ccccc2[nH]1	-6.6%	-8	4.0	-5	?	5.3
OCCN(CCO)c1ncnc2c1sc1nc(N3CCOCC3)c3c(c12)CCCC3	0.2%	-23	0.3	-9	-10	-2.7
